Compound activity as filed in PubChem.
Beta2AR agonist: human beta-2 adrenergic receptor agonism by FAP; response, % (no concentration beside the values); 340,000 tested, 0.43% active; Am2.2-beta2AR cells, FAP receptor internalization, flow cytometry; reference of the scale not given here; AID 504454;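 active = response above a set limit, near 3 SD of response in nonfluorescent compounds, cut at about 42% in these data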;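 note: stock transfer was 100 nL into about 11 µL; a reference agonist was the positive control; negative values mostly stem from fluorescent compounds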
Target sequence (P07550 whole entry, looked up): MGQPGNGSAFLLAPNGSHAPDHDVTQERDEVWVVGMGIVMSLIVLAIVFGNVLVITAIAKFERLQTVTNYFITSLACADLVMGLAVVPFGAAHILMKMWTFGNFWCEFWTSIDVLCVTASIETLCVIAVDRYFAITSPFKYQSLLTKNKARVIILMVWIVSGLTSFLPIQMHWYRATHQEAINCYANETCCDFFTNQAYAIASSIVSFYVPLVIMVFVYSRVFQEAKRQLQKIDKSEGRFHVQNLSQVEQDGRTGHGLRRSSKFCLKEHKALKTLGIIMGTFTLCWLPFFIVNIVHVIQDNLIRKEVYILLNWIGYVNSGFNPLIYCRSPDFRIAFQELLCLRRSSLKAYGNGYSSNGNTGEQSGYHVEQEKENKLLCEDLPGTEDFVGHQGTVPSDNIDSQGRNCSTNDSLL
HNF4A DNA FP: change in binding of human HNF4 alpha to DNA; HNF4a-FITC DNA binding, fluorescence polarization, 1 h; AID 1224865; activity change, % at 10 µM; 360,000 tested, 0.3% active; in the data active = activity change above about 30%, passing the limit was not always enough;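 note: controls were the assay level and a saturating level of protein; the project sought stronger binding though the title names inhibitors; some compounds called inactive have numbers as strong as hits; positive values seem to mean higher polarization but the record does not say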
Target sequence (P41235 whole entry, looked up): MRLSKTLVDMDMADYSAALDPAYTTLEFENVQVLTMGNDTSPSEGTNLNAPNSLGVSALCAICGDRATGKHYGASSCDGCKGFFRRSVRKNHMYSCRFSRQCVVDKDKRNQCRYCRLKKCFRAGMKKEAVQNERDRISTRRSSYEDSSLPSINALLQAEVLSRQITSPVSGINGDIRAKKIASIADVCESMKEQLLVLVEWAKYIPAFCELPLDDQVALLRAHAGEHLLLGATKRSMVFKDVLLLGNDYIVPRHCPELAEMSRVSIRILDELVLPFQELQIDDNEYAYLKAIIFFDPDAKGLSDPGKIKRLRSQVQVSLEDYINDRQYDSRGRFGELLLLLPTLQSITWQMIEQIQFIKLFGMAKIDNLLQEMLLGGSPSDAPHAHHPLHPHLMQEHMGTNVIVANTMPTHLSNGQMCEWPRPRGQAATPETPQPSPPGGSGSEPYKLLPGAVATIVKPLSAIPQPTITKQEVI
Vif TR-FRET: HIV-1 Vif–A3G interaction blockers – biochemical, TR-FRET, GST-Vif 1-94, biotin-A3G peptide, dose response retest, primary screen (AID 1117319). TR-FRET GST-Vif / biotin-A3G peptide binding; higher % means a stronger effect; test concentration not given here; strong numbers were not always called active. one-dose inhibition, %; IC50 in µM for titrated hits. 260,000 tested, 0.57% active;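 active = above the screen mean plus three standard deviations and confirmed in dose response; inconclusive = results disagree or hit not tested in dose response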;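 note: Vif residues 1-94 fused to GST binding biotinylated APOBEC3G peptide 110-148; 0% = full assay without inhibitor and 100% = GST in place of GST-Vif; retest series ran down from 100 µM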
ALR inh: human ALR oxidase inhibition via reduced H2O2. inhibition, % (no concentration beside the values). P55789. purified ALR, DTT oxidation, H2O2 HRP-luminol luminescence. 290,000 tested, 3.8% active;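 active = mean and each replicate at 75% or more; inconclusive = only one of the two met; inactive = neither met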;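 note: stock transfer was 7.5 nL into about 7.5 µL; 0% = neutral wells and 100% = wells with inactivated enzyme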
Target sequence (P55789 whole entry, looked up): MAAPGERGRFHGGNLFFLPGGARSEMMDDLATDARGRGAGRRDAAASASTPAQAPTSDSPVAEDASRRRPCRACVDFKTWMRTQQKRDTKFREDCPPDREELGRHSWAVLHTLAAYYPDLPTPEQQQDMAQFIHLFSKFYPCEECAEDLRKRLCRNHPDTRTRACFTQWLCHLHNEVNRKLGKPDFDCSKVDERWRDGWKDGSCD
LANA-H2B inh: blocks KSHV LANA binding to histone H2A/H2B; cell-free LANA-H2A/H2B peptide, fluorescence polarization; inhibition, % (concentration not given with the values); 320,000 tested, 0.6% active; AID 2629; in the data active = inhibition mostly above about 10%, no sharp cut-off; inactive = mostly below about 6.7%;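 note: stock transfer was 7.5 nL into about 10 µL; 0% = median of vehicle wells and 100% = median of positive control wells; one replicate is shown; the record names a cut of 25% in any replicate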
Calb FLC: C. albicans growth modulation with fluconazole; growth inhibition, % (no concentration beside the values); 300,000 tested, 0.57% active; C. albicans CaCi-2 (fluconazole-resistant clinical isolate) + fluconazole, Alamar Blue growth, 48 h;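 active = most replicates above 75%; inconclusive = exactly half above 75%; inactive = most below 75%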;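 note: all wells also contain fluconazole at 8 µg/ml as a sub-toxic cotreatment; 0% = median of DMSO wells and 100% = median of geldanamycin control wells; wells of about 8 µL received 7.5 nL stock; the first replicate is given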
RanGTP-Imp inh: inhibitors of RanGTP-importin-beta interaction, primary screen, biochemical, FRET, CFP-Ran, YFP-importin-beta, homogeneous; cell-free CFP-Ran/YFP-importin-beta FRET ratio; inhibition, % (test concentration not listed); 300,000 tested, 1.1% active;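 active = most replicates above 15%; inconclusive = exactly half above 15%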;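 note: 0% = DMSO wells and 100% = Ran loaded with GDP instead of GTP; wells of about 40 µL received 100 nL stock; the first replicate is given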
Active calls of the source: *; ? = inconclusive; . = no result given; & = joins results of further samples.

SMILES	Beta2AR agonist	HNF4A DNA FP	Vif TR-FRET	ALR inh	LANA-H2B inh	Calb FLC	RanGTP-Imp inh
Cc1cc(C)n2nc(C(=O)Nc3cccnc3)nc2n1	-7.0	-4.4	65.8%	-4.6	3.2	0.0	-0.8
O=C1CN(CC(=O)Nc2ccc(Cl)cc2)CCN1	-3.3	2.4	1.6%	-5.7	-2.7	2.6	3.9
CCCC(=O)NC(C)c1nc2ccccc2n1CC (stereo not given)	-10.0	-2.3	10.4%	-4.1	-1.9	-3.7	?
Cc1ccc(C(=O)Nc2ccn(Cc3ccc(F)cc3)n2)o1	5.1	-1.6	15.9%	3.4	-4.8	-5.2	3.6
Cn1nnc2cc(NC(=O)Nc3cccc(Cl)c3)ccc21	1.0	1.4	-5.4%	-12.8	-2.5	-3.2	1.1
COc1cccc(/C=N/NC(=O)c2ccccc2)c1OS(=O)(=O)c1ccccc1	2.5	6.8	29.9%	-9.7	7.2	?	-2.1
O=S(=O)(Nc1ccc2oc(-c3ccccc3)nc2c1)c1ccccc1	0.3	1.5	-4.8%	-3.8	-3.8	-17.2	1.3
COc1ccc(Cn2c(SCc3ccc(C)cc3)nc3cc(OC)c(OC)cc3c2=N)cc1Cl	.	-0.2	5.0%	-7.0	-1.5	22.5	10.3
Cc1ccc(NC(=O)C2CCN(C(=O)c3ccco3)CC2)cc1	8.3	-0.1	.	.	0.6	-0.1	4.3
Cc1ccccc1Nc1nc(N)nc(CSc2ccccc2)n1	-3.9	-0.8	-13.4%	-18.2	0.5	-17.2	0.5
COC(=O)c1c(NC(=O)CN2CCOCC2)sc2c1CCC(C)C2 (stereo not given)	7.5	-0.3	-7.1%	-3.5	0.2	16.9	6.2
Fc1ccc2cnc(-c3ccccc3)c(-c3ccc(C(F)(F)F)cc3)c2c1	4.1	6.3	.	-7.0	-1.9	.	.
CCOC(=O)CNC(=O)CSc1ncnc2c1cnn2-c1ccc(OC)cc1	10.4	2.1	-2.5%	-14.0	6.7	-4.8	3.4
O=C(O)c1cccc2c1/C(=N/Nc1ccc([N+](=O)[O-])cc1[N+](=O)[O-])c1ccccc1-2	1.7	-2.6	2.6%	.	-4.9	9.6	4.2
CC(Cc1cnccn1)NC(=O)c1cc(COc2ccc(F)cc2F)on1 (stereo not given)	-0.9	0.6	.	-2.7	-4.6	-8.2	3.8
O=c1ccc(-c2ccc(S(=O)(=O)Nc3cccc([N+](=O)[O-])c3)s2)n[nH]1	0.2	-7.8	.	-4.4	8.6	-2.3	0.0
O=C(Nc1cc(=O)[nH]c(=O)[nH]1)c1cccc(C(F)(F)F)c1	1.1	0.3	21.3%	.	-0.9	27.3	0.9
O=S(=O)(Nc1ncnc2sc3c(c12)CCC3)c1cc(F)ccc1F	-10.0	6.0	.	93.6*	4.2	21.3	-1.3
COc1cc2nc(SCc3c(C)noc3C)n(CCC3=CCCCC3)c(=O)c2cc1OC	5.5	1.9	-0.7%	-9.6	0.8	-3.1	?
COc1cccc(NC(=O)CCCN2C(=O)C3CC=CCC3C2=O)c1 (stereo not given)	8.3	3.2	-4.9%	2.6	1.4	-3.5	2.6
Cc1ccc(C)c(OCCCNCc2ccccc2)c1	10.5	-1.9	-2.5%	-3.5	-1.7	-0.9	-1.6
O=C(COc1ccc([N+](=O)[O-])cc1)Nc1ccccc1N1CCCC1	-7.1	1.4	15.4%	.	1.7	9.9	0.4
Cc1cc(C(F)(F)F)nc(SCC(=O)c2cccc([N+](=O)[O-])c2)n1	-7.2	0.4	3.7%	1.1	3.7	-26.8	0.5
COc1ccc(OC)c(S(=O)(=O)NCc2cc(-c3ccccc3)no2)c1	0.9	1.3	.	-3.6	-0.4	-2.0	2.4
CCn1c(SCC(=O)N=Nc2c(O)[nH]c3ccccc23)nnc1-c1ccc(C(C)(C)C)cc1	.	.	-2.8%	-1.6	-4.7	-4.4	7.0
NC(=O)NC(Cc1ccccc1)C(=O)O (stereo not given)	0.7	2.8	24.5%	-19.9	-3.3	-6.2	-2.8
CCC(=O)Nc1ccc(S(=O)(=O)Nc2cccc(C)c2)cc1OC	-5.5	-5.6	-3.1%	-2.5	-1.6	2.8	5.6
O=C(Nc1ccc(NC(=O)c2ccc(Cl)c(S(=O)(=O)N3CCOCC3)c2)cc1)c1ccccc1	7.9	4.4	.	-8.4	8.2	-3.3	1.8
CN1C(=O)/C(=C/c2cc3c(cc2Br)OCO3)NC1=S	2.1	-1.4	-0.9%	-0.2	7.9	30.9	5.1
CCOC(=O)/C=C1\SCC(=O)N1Cc1nnc(-c2ccccc2Br)o1	-0.6	30.9	6.2%&5.8%	-4.6	-2.7	-6.6	3.7
O=C(Oc1oc(-c2ccco2)nc1C=Nc1ccccc1)c1ccoc1	-0.2	-3.4	21.3%	31.2	0.5	11.5	1.4
CN1CCN(NC(=S)Nc2ccc(OC(F)F)cc2)CC1	-0.3	-0.7	.	14.7	2.1	2.2	0.2
CCN(CC)S(=O)(=O)c1cc(C(=O)Nc2cc(C)[nH]n2)ccc1Cl	11.7	3.9	1.9%	.	-3.1	-5.0	1.1
COc1ccc(/C(C)=N/NC(=O)CNC(=O)/C=C\c2ccccc2OC)c(OC)c1	0.8	4.8	.	3.4	2.5	-11.7	2.4
COc1ccc(OC)c(S(=O)(=O)N/N=C\c2c[nH]c3ccccc23)c1	-7.5	-0.9	.	74.0	-0.2	12.1	1.7
Cc1ccc(C2(C)NC(=O)N(CC(=O)NCc3cccc(Cl)c3)C2=O)cc1 (stereo not given)	6.0	-2.2	-8.8%	16.4	-1.6	.	6.2
CCOC(=O)N1CCN(S(=O)(=O)c2cc(Br)cnc2N)CC1	-4.8	2.9	18.5%	-23.8	-0.1	-0.4	4.9
CC(C[N+](C)(C)C)OC(=O)C1(c2ccccc2)CCCC1 (stereo not given)	2.2	-3.6	31.9%	-2.9	-0.6	-5.2	1.3
O=C(c1ccc(Cl)cc1Cl)N1CCN(c2ccccn2)CC1	-2.9	1.7	.	-1.1	2.0	-14.6	2.5
O=C(COC(=O)c1ccccc1Cc1ccccc1)NC1CCS(=O)(=O)C1 (stereo not given)	-7.4	1.3	.	12.9	-0.9	-5.7	3.6
CCc1nc(SCC(=O)Nc2ccccc2OC)c2c(C)c(C)sc2n1	-10.0	-0.3	.	0.6	-3.4	30.3	-0.5
C=CCNC(=S)NNC(=O)c1cccn(Cc2ccc(Cl)c(Cl)c2)c1=O	-6.4	-3.2	22.6%	5.2	1.4	-8.0	2.0
Cc1nccc(-c2cccc(NC(=O)c3ccccc3Cl)c2)n1	9.7	1.6	10.1%	1.3	-3.5	-2.7	3.0
Cc1sc(NC(=O)CSc2nc(N)cc(N)n2)c(C#N)c1C	1.7	13.9	-4.9%	6.4	-7.3	2.4	-1.5
N#CC(Cc1cccc(CC(C#N)(c2ccccc2)c2ccccc2)c1)(c1ccccc1)c1ccccc1	0.9	10.7	.	2.9	1.7	-2.5	1.3
CC12CC(NC(=O)N1c1cccc(C(=O)Nc3ncn[nH]3)c1)c1ccccc1O2 (stereo not given)	17.6	5.2	3.6%	-0.6	0.0	-5.4	-1.5
COc1ccc(-c2[nH]ncc2/C=C(/C#N)C(=O)NC2CCCCC2)cc1	1.7	-5.4	-2.5%	5.2	5.4	-10.3	3.3
CC(NS(=O)(=O)c1ccc(Cl)cc1)C(=O)NCc1ccco1 (stereo not given)	4.5	-0.8	18.6%	-1.5	0.1	-2.8	1.2
Nc1ccccc1SC1CC(=O)N(c2ccc(Cl)c(Cl)c2)C1=O (stereo not given)	-3.0	-1.6	-7.5%	0.5	0.0	9.3	3.1
O=C(CC1C(=O)NCCN1CCCc1ccccc1)NCCc1ccccc1F (stereo not given)	6.3	1.9	.	1.5	1.7	14.7	-2.5

Random excerpt: four compounds from above, in no set order.
SMILES	Beta2AR agonist	HNF4A DNA FP	Vif TR-FRET	ALR inh	LANA-H2B inh	Calb FLC	RanGTP-Imp inh
CCc1nc(SCC(=O)Nc2ccccc2OC)c2c(C)c(C)sc2n1	-10.0	-0.3	.	0.6	-3.4	30.3	-0.5
O=C(CC1C(=O)NCCN1CCCc1ccccc1)NCCc1ccccc1F (stereo not given)	6.3	1.9	.	1.5	1.7	14.7	-2.5
CC(NS(=O)(=O)c1ccc(Cl)cc1)C(=O)NCc1ccco1 (stereo not given)	4.5	-0.8	18.6%	-1.5	0.1	-2.8	1.2
Nc1ccccc1SC1CC(=O)N(c2ccc(Cl)c(Cl)c2)C1=O (stereo not given)	-3.0	-1.6	-7.5%	0.5	0.0	9.3	3.1

Following part
SMILES	Beta2AR agonist	HNF4A DNA FP	Vif TR-FRET	ALR inh	LANA-H2B inh	Calb FLC	RanGTP-Imp inh
CN1CCN(C(=O)c2cc(C(C)(C)C)cc(C(C)(C)C)c2)CC1	1.4	1.0	.	-2.6	2.6	-6.3	?
CCn1c(=N)n(CC(=O)C23CC4CC(CC(C4)C2)C3)c2ccccc21	-4.5	0.8	3.8%	-7.1	-1.4	-3.1	0.6
COc1ccc2nc(NC(=O)c3ccc(NC(=O)C4CCCO4)cc3)sc2c1 (stereo not given)	11.9	-3.4	4.7%	.	0.5	-1.7	-0.5
Cc1ccc(CCNC(=O)C2CCCN(c3nc4ccccc4o3)C2)cc1 (stereo not given)	-4.1	3.8	-0.2%	-1.4	-1.5	6.2	-1.2
O=C(CSc1nccc(=O)[nH]1)NCc1ccco1	-3.5	-10.8	3.8%	-0.3	-0.7	-2.2	10.3
Cc1ccc(C(=O)NNC(=S)NC(=O)c2ccc(Cl)cc2)cc1	-3.6	0.9	14.8%	15.3	4.2	-6.7	-0.9
NNC(=O)c1sccc1OCc1ccc(Cl)cc1	-10.5	-0.7	.	3.0	-2.5	7.1	4.7
O=C(COC(=O)CCCOc1ccc(Cl)cc1Cl)Nc1cccc(Cl)c1	-2.8	-1.5	.	.	-3.1	29.7	2.3
Cn1nc(C(=O)NC2CCCN(Cc3ccccc3F)C2)c2ccccc2c1=O (stereo not given)	-6.6	-2.7	0.8%	.	-3.6	16.7	2.1
COc1ccc(OC)c(NS(=O)(=O)Cc2ccccc2)c1	.	.	24.0%	5.5	-9.4	-0.9	4.4
CCOC(=O)C(C(=O)OCC)N(C#N)c1nc(OC)nc(N(C)C)n1	10.9	0.1	3.7%	3.1	-3.1	-6.5	5.0
COC(=O)c1nnn(-c2nonc2N)c1COc1ccc(C=O)cc1OC	29.8	1.5	?	-2.8	0.2	2.8	1.4
Cc1ccc(-n2c3c(c(=O)[nH]c2=O)C(C(F)(F)F)(C(F)(F)F)NC(=O)N3)cc1	1.7	6.2	-2.8%	0.8	4.1	3.9	3.1
CCc1ccccc1NC1Nc2cc(C)nn2S1 (stereo not given)	8.5	4.3	?	0.4	-2.1	-13.2	-1.0
CSC1=N/C(=C\c2ccccc2Cl)C(=O)N1N(C)C	-1.5	10.2	-3.0%	-4.9	-2.9	-6.9	2.7
O=C(NCC1(c2ccccc2)CCOCC1)c1cccs1	-0.7	2.5	3.8%	.	2.3	13.3	0.5
Cn1c(NC(=O)/C=C/c2c(F)cccc2Cl)cc(=O)n(C)c1=O	8.1	1.6	-1.1%	-3.7	1.1	1.9	5.7
CCOC(=O)N1CCN(C2OC(=O)c3ccccc32)CC1 (stereo not given)	8.4	0.9	0.2%	-10.1	7.0	-3.5	2.0
O=C(CSc1ccccc1)NNC(=O)c1ccncc1	0.2	-0.5	9.3%	.	.	.	.
COc1ccc(CCC(C)Nc2ccc(F)c(F)c2)cc1 (stereo not given)	-4.9	3.6	?	38.9	4.7	-8.8	1.1
COc1ccc(OC)c(S(=O)(=O)N2CCC(c3nc4ccccc4[nH]3)CC2)c1	-5.4	0.8	.	-3.2	-6.7	3.9	3.5
COc1cc(-c2nc(CN3CCN(CC(C)C)C(=O)[C@@H]3C)c(C)o2)ccc1F	2.5	3.9	-4.8%	4.3	2.2	-17.1	4.1

Rows were taken by chance; 6.3% or so of the library scored in one or more.
